LASV entry inh – blocks Lassa virus binding to or entry into cells; Potency, µM (titrated, usually from 37.9 µM), inactives show at the highest dose activity change, negative = inhibition, most hits filed as inhibitors; hit rate 1.2% among 300,000; Lassa virus pseudotype entry inhibition, cell reporter; control for the full effect not named in the record; active means well fitted inhibition curve with a large enough effect; inconclusive means small, poorly fitted or top-dose-only effect, or effect the other way; inactive means flat fitted curve, though single readings scatter; tested in HEK293 cells; note: % is set by controls: 0 for no effect and ±100 for the full control effect; nearly all actives have a fitted effect of over 50% in size; luciferase read-out
SARS PLpro yeast – SARS-CoV PLP inhibition in yeast | S. cerevisiae expressing SARS-CoV PLpro, growth rescue; control for the full effect not named in the record | Potency, µM (titrated, usually from 32.9 µM), for the others: at the top dose activity, positive = growth rescue | hit rate 0.19% among 330,000 | AID 485353; active means well fitted rising curve with a large enough effect; inconclusive means small, poorly fitted or top-dose-only effect; inactive means no such curve, though single readings can be large or run the other way; note: 0% is about no effect; nearly all actives have a fitted effect of over 55% in size; growth read by luminescence after 48 h
Marburg entry inh – inhibitors of Marburg virus binding or cell entry; Marburg virus pseudotyped entry inhibition, cell reporter; control for the full effect not named in the record; about a third of the inactives were read at about 46 µM; Potency, µM (highest dose often 37.8 µM), without a hit: top-dose activity change, negative = inhibition, hits mostly inhibitors; hit rate 1.8% among 300,000; active = well fitted inhibition curve with a large enough effect; inconclusive = small, poorly fitted or top-dose-only effect, or effect the other way; inactive = flat fitted curve, though single readings scatter; tested in HEK293 cells; about a fifth of its hits are not listed in these tables; note: % is set by controls: 0 for no effect and ±100 for the full control effect; luciferase read-out
StopGo reporter – FMDV 2A StopGo reporter, luciferase signal; human cells with a luciferase reporter of 2A StopGo recoding; control for the full effect not named in the record; Potency, µM (doses to about 57.9 µM), inactives show at the top dose signal change, negative = less light; hit rate 1.2% among 410,000; active = well fitted falling curve with a large enough effect; inconclusive = small, poorly fitted or top-dose-only effect; inactive = no such curve, though single readings can be large or run the other way; tested in HEK293T cells; note: % is set by controls: 0 for no effect and ±100 for the full control effect; nearly all actives have a fitted effect of over 45% in size; luciferase light after 4 h
Cruzain inh Det – cruzain (T. cruzi) inhibition with detergent; P25779; purified cruzain, Z-FR-AMC fluorescence, 0.01% Triton; Potency, µM, for the others: max response, negative = inhibition, hits mostly inhibitors; hit rate 0.43% among 200,000; AID 1478;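 note: plate controls were neutral wells for no effect and buffer without enzyme for full effect; nearly all actives have a fitted effect of over 40% in size; top concentration of the series not given in the record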
Target sequence (P25779 123-467 limits assumed): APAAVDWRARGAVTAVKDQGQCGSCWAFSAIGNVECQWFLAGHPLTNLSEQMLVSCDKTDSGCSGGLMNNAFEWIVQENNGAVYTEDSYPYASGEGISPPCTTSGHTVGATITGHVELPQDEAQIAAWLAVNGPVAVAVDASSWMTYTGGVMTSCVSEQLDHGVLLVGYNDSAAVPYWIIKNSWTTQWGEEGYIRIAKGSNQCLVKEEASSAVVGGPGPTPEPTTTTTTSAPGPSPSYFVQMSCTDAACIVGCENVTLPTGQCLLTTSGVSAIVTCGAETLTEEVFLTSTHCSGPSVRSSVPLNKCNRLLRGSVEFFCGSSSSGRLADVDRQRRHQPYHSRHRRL
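Cysteine protease activity tested under reducing, mildly acidic conditions (100 mM sodium acetate pH 5.5, 5 mM DTT) plus 0.01% Triton X-100. Cruzain 1.5 nM; substrate Z-FR-AMC 2 uM; 15 min compound preincubation at room temperature.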
Cruzain noTriton – blocks cruzain activity in detergent-free assay; Potency, µM, for inactives: max response, negative = inhibition, most hits filed as inhibitors; purified cruzain, Z-FR-AMC fluorescence, no detergent; hit rate 2.3% among 200,000; AID 1476; P25779;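 note: plate controls were enzyme without inhibitor for no effect and buffer without enzyme for full effect; nearly all actives have a fitted effect of over 40% in size; top concentration of the series not given in the record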
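Detergent-free condition (0.00005% Triton X-100) in acetate buffer pH 5.5 with DTT. 1.5 nM enzyme and compound were pre-mixed 15 min, then 2 uM Z-FR-AMC substrate added; reaction progress from fluorescence change between first and third reads (60 s).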
RE007 growth inh – less growth of the S. pombe RE007 Vpr strain | S. pombe RE007 Vpr strain, BacTiter-Glo ATP luminescence, 24 h; control for the full effect not named in the record | Potency, µM (doses to about 92.2 µM), without a hit: at the highest dose activity change, negative = less growth | hit rate 0.21% among 360,000; active = well fitted falling curve with a large enough effect; inconclusive = small, poorly fitted or top-dose-only effect; inactive = no such curve, though single readings can be large or run the other way;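 note: % is set by controls: 0 for no effect and ±100 for the full control effect; nearly all actives have a fitted effect of over 50% in size; the assay follows cell death caused by Vpr and the record does not say whether a fall means rescue or toxicity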
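Fission yeast RE007 carrying one integrated HIV-1 vpr copy, seeded at OD 0.01 in PMG+AL medium with 23 nL pinned compound. Grown 24 h at 30 degrees; viability read by BacTiter-Glo luminescence after 5 min.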
NS1 inh – inhibitors of influenza NS1 protein function | S. cerevisiae slowed by influenza A NS1, growth recovery by OD600 | Potency, µM (highest dose often 46.1 µM), without a hit: top-dose activity, positive = more growth | hit rate 0.4% among 270,000; active means well fitted rising curve with a large enough effect; inconclusive means small, poorly fitted or top-dose-only effect; inactive means no such curve, though single readings can be large or run the other way; note: nearly all actives have a fitted effect of over 50% in size
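Growth recovery, yeast-based: influenza A NS1 expressed in S. cerevisiae causes slow growth, and suppressors are detected by OD600. The parent strain without NS1 is used as positive control.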
The depositor's hits bear a star; ? = inconclusive; . = no result given; & = joins results of further samples; [ ] = remark or other dose. Unless noted, calls come from the whole dose curve; as a rule, active = well fitted curve in the direction sought with a large enough effect; inconclusive = small, poorly fitted or top-dose-only effect, or another doubt; inactive = no such curve, though single readings can be large; an effect the other way counts as inactive or inconclusive. Potency is the fitted concentration of half-maximal effect. Rows are unselected. Share with any hit: about 4.7%.

SMILES | LASV entry inh | SARS PLpro yeast | Marburg entry inh | StopGo reporter | Cruzain inh Det | Cruzain noTriton | RE007 growth inh | NS1 inh
Cc1ccc2c(c1)c1c(n2C)C(=O)CCC1 | 5% | -3% | 10% | 4% | -2.5% | -9% | -7% | -53%
COc1ccc(Br)cc1[C@@H]1Nc2ccc(C(=O)O)cc2[C@@H]2C=CC[C@@H]21 | -15%[46.1 µM] | . | 1%[46.1 µM] | -12% | -28% | 16% | . | .
CC1(C)Cc2c(sc(NC(=O)C(=O)N3CCOCC3)c2C(N)=O)CO1 | . | 2% | . | -6% | . | . | -1% | -5%
c1ccc(C(c2ccccc2)c2nc(-c3cccnc3)no2)cc1 | 6% | -40% | -12% | -11% | -14% | -8% | 15% | -31%
Cc1ccc(-c2cc(NC(=O)COc3ccc(Cl)cc3C)on2)cc1 | 13%[46.1 µM] | . | 28%[46.1 µM] | 16% | -1.3% | 10µM* | . | .
CS(=O)(=O)c1cnc(-c2ccccc2)nc1-c1ccc(Cl)c(Cl)c1 | ? | 0% | ? | -19% | . | . | -16% | 3%
COc1ccc(S(=O)(=O)Nc2cccc3ccc(O)cc23)cc1 | -5% | . | ? | ? | . | . | 25% | .
COc1cnc(-c2ccccc2)nc1Oc1ccccc1C | -1% | -9% | ? | ? | -6.6% | 8% | -13% | 7%
CC(C)(C)C#CCn1c(/C=[N+](\[O-])C2CCCCC2)nc2ccccc21 | . | -3% | . | -10% | . | . | 18% | -13%
CCc1ccc(CN2C(=O)c3ccccc3C2C(=O)NC(C)CC)cc1 (stereo not given) | ? | 3% | 1%[46.1 µM] | -5% | . | . | 14% | 9%
Cc1ccc(S(=O)(=O)C2(C(=O)Nc3ccc4c(c3)OCO4)CC2)cc1 | . | 0% | . | -11% | -1.6% | 5% | 5% | ?
COc1ccc(OC)c(NC(=O)C2C3CCC(O3)C2C(=O)O)c1 (stereo not given) | . | 2% | . | . | 6.2% | 3% | . | 3%
COCCNC(=S)NC12CC3CC(CC(C3)C1)C2 | ? | -6% | 10% | 5% | -3.0% | -2% | 3% | -48%
O=C(NC1CCCCC1)C(c1cccnc1)N(C(=O)CCl)c1ccc(F)cc1 (stereo not given) | ? | 28% | ? | ? | 1.8% | 17% | 22% | 12%
O=C(Oc1ccc(/C=N/O)cc1)c1ccccc1 | 3% | -5% | 3% | 55%[activator] | -3.3% | -2% | ? | -96%
CC1=CC(=O)C(C(C)=Nc2ccccc2Cl)C(=O)O1 (stereo not given) | 10% | 1% | 17%[46.1 µM] | 32%[activator] | . | . | 4% | -3%
CC(C)CN(C(=O)c1nn(C)c(=O)c2ccccc12)c1nc2ccccc2s1 | 19% | -1% | -27% | -18% | -1.1% | 15% | -2% | 4%
O=C(Nc1cccc(O)c1)c1cc2nc(-c3ccccc3)cc(-c3ccccc3)n2n1 | -22% | . | 7% | -14% | -9.9% | -17% | -23% | 11%
COc1cccc(CNc2cccc(C(F)(F)F)c2)c1O | ? | -8% | ? | -2% | . | . | -2% | .
O=C(Nc1ccccc1-c1nc2ccccc2s1)c1ccco1 | -13% | -2% | -16% | -30% | -11% | -19% | -26% | -5%
COc1ccc(Cc2nnc(NC(C)=O)s2)cc1 | -5% | 0% | 28%[46.1 µM] | 5% | . | . | -9% | 2%
COc1ccc(Cl)cc1NC(=O)CCc1nc(-c2ccccc2F)no1 | -10% | -4% | 9%&0%[46.1 µM] | -12%&-22% | -5.8% | -6% | -1% | 3%
C=CCn1c(SCC(=O)Nc2c(C)nn(Cc3ccccc3)c2C)nnc1C(O)c1ccccc1 (stereo not given) | 5% | 3% | 14% | . | 3.6% | 9% | 6% | -5%
CCCCOc1ccc(C(=O)Nc2ccc(SC(F)F)cc2)cc1OC | -21% | 9% | 20% | -2% | -6.8% | -18% | -18% | 7%
CCn1c(-c2ccco2)n[nH]c1=S | -11% | 0% | 13%&13% | -16% | 2.2% | -2% | 1% | 11%
O=C(Nc1nncs1)c1cc(S(=O)(=O)N2CCCCC2)ccc1Cl | ? | 0% | 0%[46.1 µM] | -9% | . | . | 6% | 14%
CC(C)N(Cc1nc(COc2ccccc2)no1)Cc1nccn1C | . | 0% | . | 18% | . | . | 16% | -5%
CN(C)CCCNC(=S)N(Cc1cccs1)Cc1cc2cc3c(cc2[nH]c1=O)OCCO3 | ? | 0% | 23µM* | -16% | . | . | -17% | 0%
CCCc1nc(-c2cc3cc(C)ccc3[nH]c2=O)no1 | . | 1% | . | -12% | . | . | 2% | 1%
CN=C(NC1CCCCC1)c1ccc(Cl)cc1 | -4% | 10% | ? | -20% | -1.9% | 4% | . | 6%
COc1ccc(C(=O)Nc2c(C(=O)c3ccccc3)oc3ccccc23)cc1 | -7%[46.1 µM] | . | -28%[46.1 µM] | -22% | 0.0% | 11% | . | .
COc1ccc(/C=C/C(=O)Nc2nc3n(n2)C(c2ccccc2)C=C(c2ccc(Cl)cc2)N3)cc1 (stereo not given) | ? | . | -20%[46.1 µM] | -15% | -7.7% | -20% | . | .
Cc1cccc2c(=O)cc(CSc3ccccc3NC(=O)C(C)C)[nH]c12 | -9%[46.1 µM] | . | . | -20% | -0.5% | -15% | . | .
Cc1ccc(/C(O)=C2/C(=O)C(=O)N(Cc3ccco3)C2c2cccs2)cc1 (stereo not given) | -7% | -10% | 2% | 28% | -11% | -2% | 10% | 23%
OCCN=Cc1c(O)[nH]c2ccccc12 | -1% | 1% | -1% | -8% | 0.5% | -15% | 5% | 0%
COc1ccc(CCNC(=O)Cn2c([N+](=O)[O-])cnc2C)cc1OC | 14% | 0% | 3%[46.1 µM] | 3% | . | . | -2% | 3%
CN(C)CCCNc1cc(C(C)(C)C)nc2c(-c3ccccc3)cnn12 | ? | 1% | ? | 5% | . | . | 2% | -2%
Cc1ccccc1OC(C)C(=O)NCCCN1CCOCC1 (stereo not given) | . | 0% | . | -10% | . | . | 9% | -8%
Cc1cc(S(=O)(=O)N2CCCCC2)ccc1OCC(=O)N1CCOCC1 | -3% | 4% | ? | -21% | . | . | 8% | 3%
COc1ccc(Cl)cc1NC(=O)COC(=O)CC(C)(C)CC1=NS(=O)(=O)c2ccccc2N1 | ? | . | . | ? | -3.6% | ? | . | .

Single records (already shown).
COc1ccc(/C=C/C(=O)Nc2nc3n(n2)C(c2ccccc2)C=C(c2ccc(Cl)cc2)N3)cc1 (stereo not given) across the screens: LASV entry inh = ?; SARS PLpro yeast = .; Marburg entry inh = -20%[46.1 µM]; StopGo reporter = -15%; Cruzain inh Det = -7.7%; Cruzain noTriton = -20%; RE007 growth inh = .; NS1 inh = .
COc1ccc(C(=O)Nc2c(C(=O)c3ccccc3)oc3ccccc23)cc1 across the screens: LASV entry inh = -7%[46.1 µM]; SARS PLpro yeast = .; Marburg entry inh = -28%[46.1 µM]; StopGo reporter = -22%; Cruzain inh Det = 0.0%; Cruzain noTriton = 11%; RE007 growth inh = .; NS1 inh = .

Returning to the listing; the seven compounds before the break are reprinted first.
SMILES | LASV entry inh | SARS PLpro yeast | Marburg entry inh | StopGo reporter | Cruzain inh Det | Cruzain noTriton | RE007 growth inh | NS1 inh
Cc1ccc(/C(O)=C2/C(=O)C(=O)N(Cc3ccco3)C2c2cccs2)cc1 (stereo not given) | -7% | -10% | 2% | 28% | -11% | -2% | 10% | 23%
OCCN=Cc1c(O)[nH]c2ccccc12 | -1% | 1% | -1% | -8% | 0.5% | -15% | 5% | 0%
COc1ccc(CCNC(=O)Cn2c([N+](=O)[O-])cnc2C)cc1OC | 14% | 0% | 3%[46.1 µM] | 3% | . | . | -2% | 3%
CN(C)CCCNc1cc(C(C)(C)C)nc2c(-c3ccccc3)cnn12 | ? | 1% | ? | 5% | . | . | 2% | -2%
Cc1ccccc1OC(C)C(=O)NCCCN1CCOCC1 (stereo not given) | . | 0% | . | -10% | . | . | 9% | -8%
Cc1cc(S(=O)(=O)N2CCCCC2)ccc1OCC(=O)N1CCOCC1 | -3% | 4% | ? | -21% | . | . | 8% | 3%
COc1ccc(Cl)cc1NC(=O)COC(=O)CC(C)(C)CC1=NS(=O)(=O)c2ccccc2N1 | ? | . | . | ? | -3.6% | ? | . | .
COc1ccc(N(CC(=O)N2CCN(C)CC2)S(=O)(=O)c2cc(C)ccc2OC)cc1Cl | 12% | 6% | -14% | 0% | . | . | 0% | 2%
O=C(O)CCCC(=O)Nc1ccc2c(c1)oc1ccccc12 | . | -6% | . | -1% | . | . | -10% | 14%
O=c1c2[nH]c3ccc(F)cc3c2ncn1CC1CCCO1 (stereo not given) | ? | 0% | 17% | 10% | . | . | 0% | 2%
ON=C1C2CC=C(c3ccccc3)C1CCC2 (stereo not given) | 1%[46.1 µM] | . | -9% | -21% | . | . | 6% | .
CCOC(=O)C1CCN(S(=O)(=O)c2cc3c4c(c2)C(C)C(=O)N4CCC3)CC1 (stereo not given) | -14%[46.1 µM] | 4% | . | -4%&-14% | 0.0% | 13% | 4% | 3%
c1ccc(CN2CCN(c3nc4ccccc4n4cnnc34)CC2)cc1 | . | -4% | . | -28% | 0.9% | 3% | -6% | -8%
COc1ccc(C(=O)O)cc1S(=O)(=O)NCCc1ccccn1 | 29% | 2% | 6%[46.1 µM] | -8% | . | . | 7% | 10%
Cc1ccc(NC(=O)CSc2nc(=O)n(CCN(C)C)c3c2CCCC3)cc1Cl | ? | -4% | ? | 10% | . | . | -9% | .
COc1ccc(CSc2nc(C)cc(C)c2C#N)cc1 | -3% | 1% | ? | -15% | . | . | 25% | -1%
C=CCNc1nc(Nc2ccc(Cl)cc2)nc(OC)n1 | -8% | 1% | 27%[46.1 µM] | 40%[activator] | . | . | -14% | .
CCOC(=O)c1cc(C#N)c(N2CCN(C)CC2)nc1-c1ccccc1 | 2%[46.1 µM] | 1% | -13%[46.1 µM] | -15% | . | . | -13% | 14%
CC(Oc1ccc2ccccc2c1)C(=O)NNC(=S)NC(=O)c1ccco1 (stereo not given) | ? | -57% | ? | -19% | -4.3% | -2% | ? | -171%

From PubChem BioAssay
